Screens deposited in PubChem BioAssay by The Scripps Research Institute Molecular Screening Center.
PAD4 FP inh = human PAD4 inhibitors, primary screen, biochemical, fluorescence polarization, 1536-well format; Protein-arginine deiminase type-4 (Homo sapiens), Q9UM07; recombinant PAD4, RCA probe fluorescence polarization; inhibition, % at 6.36 µM; 330,000 tested, 0.41% active;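 active = percent inhibition above a cutoff equal to the mean of all tested compounds plus 3 SD, cut at about 15% in these data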;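 also: 0% = PAD4 with RCA probe and DMSO and 100% = probe without PAD4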
PAFAH1B3 inh = PAFAH1B3 enzyme inhibitors, primary screen, biochemical, fluorescence polarization, human. inhibition, % at 3.39 µM. recombinant PAFAH1B3, FP-rhodamine probe. 340,000 tested, 0.28% active;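 active = inhibition above the screen-wide average of all tested compounds plus 3 SD, cut at about 25% in these data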;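 also: 0% = enzyme with DMSO only and 100% = wells lacking PAFAH1B3 protein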
Target sequence (Q15102 whole entry, looked up): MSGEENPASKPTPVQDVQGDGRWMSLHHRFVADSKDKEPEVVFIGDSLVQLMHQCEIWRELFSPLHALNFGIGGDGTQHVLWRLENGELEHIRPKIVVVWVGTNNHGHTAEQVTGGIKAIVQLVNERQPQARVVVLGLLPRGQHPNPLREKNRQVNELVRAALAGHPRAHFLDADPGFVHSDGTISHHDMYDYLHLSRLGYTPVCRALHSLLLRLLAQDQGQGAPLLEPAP
LYPLA1 counter = LYPLA1 inhibitors, primary screen, counter-screen for PME1 inhibitor project, biochemical, fluorescence polarization, FP-Rh probe ABPP; Acyl-protein thioesterase 1 (Homo sapiens), O75608; recombinant LYPLA1; inhibition, % at 5.9 µM; 320,000 tested, 0.16% active; AID 2174, 2009;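 active = inhibition above the mean of all tested compounds plus 3 SD, set per campaign, cut at about 14% in these data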;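 also: inhibitors block serine hydrolase probe labeling of LYPLA1 so polarization falls; 0% = enzyme with DMSO and 100% = wells lacking LYPLA1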
PAFAH2 inh = PAFAH2 enzyme inhibitors, primary screen, biochemical, fluorescence polarization, human; Platelet-activating factor acetylhydrolase 2, cytoplasmic (Homo sapiens), Q99487; recombinant PAFAH2, FP-rhodamine activity probe; AID 492956, 2010; 340,000 tested, 0.99% active; inhibition, % at 3.39 µM;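 active = inhibition above the mean over all tested compounds plus 3 SD, cut at about 30% in these data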;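 also: inhibitors block probe labeling of enzyme so polarization drops; 0% = enzyme with DMSO and 100% = wells lacking PAFAH2 protein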
GSTO1 inh = inhibitors of recombinant GSTO1, primary screen, counter-screen for RBBP9 inhibitor project, biochemical, fluorescence polarization. Glutathione S-transferase omega-1 (Homo sapiens), P78417. activity-based probe fluorescence polarization. inhibition, % at 5.96 µM. 300,000 tested, 1.1% active. AID 1974, 2009;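 active = inhibition above the campaign mean inhibition plus 3 SD, cut at about 35% in these data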;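 also: 0% = GSTO1-1 with DMSO and 100% = wells lacking GSTO1-1 enzyme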
PME-1 primary = PME-1 inhibitors via competitive probe labeling, primary screen, biochemical, fluorescence polarization, FP-Rh probe, HTS | recombinant PME-1 | inhibition, % at 5.9 µM | 320,000 tested, 0.53% active | AID 2130, 2009;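 active = inhibition above the campaign mean of all compounds plus 3 SD, cut at about 26% in these data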;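 also: competitive labeling of PME-1 active site by serine hydrolase directed probe; 0% = PME-1 with DMSO and 100% = wells lacking PME-1 enzyme; inhibitors block probe labeling so polarization falls and inhibition rises; many of its hits are not listed in these tables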
Target sequence (Q9Y570 whole entry, looked up): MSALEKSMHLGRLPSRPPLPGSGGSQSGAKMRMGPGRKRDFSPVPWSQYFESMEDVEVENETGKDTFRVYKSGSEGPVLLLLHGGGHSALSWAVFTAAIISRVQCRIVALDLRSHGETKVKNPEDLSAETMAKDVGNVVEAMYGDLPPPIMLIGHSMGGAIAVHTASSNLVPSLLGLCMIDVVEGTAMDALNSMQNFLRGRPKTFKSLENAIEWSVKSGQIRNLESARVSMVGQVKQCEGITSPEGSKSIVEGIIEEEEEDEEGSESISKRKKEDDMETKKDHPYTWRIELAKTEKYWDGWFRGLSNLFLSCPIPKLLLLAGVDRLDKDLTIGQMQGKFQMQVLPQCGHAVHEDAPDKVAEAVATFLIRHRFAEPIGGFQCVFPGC
pPAFAH FP inh = pPAFAH enzyme inhibitors, primary screen, biochemical, fluorescence polarization, human; inhibition, % at 3.39 µM; Platelet-activating factor acetylhydrolase (Homo sapiens), Q13093; 330,000 tested, 1.5% active; recombinant pPAFAH, FP-rhodamine probe fluorescence polarization;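 active = inhibition above the mean inhibition across the screen plus 3 SD, cut at about 25% in these data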;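 also: inhibitors block binding of the rhodamine activity-based probe so polarization drops; 0% = enzyme with DMSO and 100% = wells lacking pPAFAH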
Target sequence (Q13093 whole entry, looked up): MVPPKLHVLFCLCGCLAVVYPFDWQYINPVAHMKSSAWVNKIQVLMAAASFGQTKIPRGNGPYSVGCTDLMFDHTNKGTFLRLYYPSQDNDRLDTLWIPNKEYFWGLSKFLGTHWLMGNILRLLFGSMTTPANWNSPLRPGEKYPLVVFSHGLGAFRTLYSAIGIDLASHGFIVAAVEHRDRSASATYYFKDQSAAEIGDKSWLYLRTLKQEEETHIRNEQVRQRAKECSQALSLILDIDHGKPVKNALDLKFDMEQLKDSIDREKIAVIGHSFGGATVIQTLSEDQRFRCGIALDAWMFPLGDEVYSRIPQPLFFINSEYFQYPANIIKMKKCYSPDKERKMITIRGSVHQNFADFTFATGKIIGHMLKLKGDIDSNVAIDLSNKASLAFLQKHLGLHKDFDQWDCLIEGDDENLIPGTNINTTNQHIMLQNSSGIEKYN
Fam108B inh = mouse Fam108B serine hydrolase inhibitors, primary screen, counter-screen for RBBP9 inhibitor project, biochemical, fluorescence polarization. AID 1947, 2009. 300,000 tested, 0.33% active. inhibition, % at 9.51 µM. recombinant Fam108B, FP-Rh probe fluorescence polarization;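 active = inhibition above the screen mean inhibition plus 3 SD, computed separately per campaign, cut at about 18% in these data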;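 also: inhibitors lower polarization as less probe binds the enzyme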
Numbers without * were called inactive; · = no result given.

SMILES	PAD4 FP inh	PAFAH1B3 inh	LYPLA1 counter	PAFAH2 inh	GSTO1 inh	PME-1 primary	pPAFAH FP inh	Fam108B inh
COc1ccc2c(CC(=O)N[C@@H](Cc3c[nH]c4ccccc34)C(=O)O)cc(=O)oc2c1	-5	6	0	-3	0	1	-2	-1
Cc1c(NC(=S)NC(=O)CSc2ccc(Cl)cc2)cccc1C(=O)O	0	4	-7	2	-5	-1	11	0
O=S(=O)(NCCSc1ccccc1)c1ccc2c(c1)OCCO2	4	0	-5	16	20	-7	7	1
O=C(Nc1cccc(Cl)c1)c1cc(S(=O)(=O)NCCc2ccc(Cl)cc2)ccc1F	-2	-47	-25	-82	-17	-68	-29	-40
Cc1ccc(O)c(NC(=O)CSc2ccc(Cl)cc2)c1	-3	8	6	2	2	2	7	-5
CC1CC(NC(=O)c2c(O)nc3sccn3c2=O)CC(C)(C)C1 (stereo not drawn)	1	1	-3	14	-18	-4	1	-1
Cn1nc(C(=O)N2CCN(S(=O)(=O)c3ccc(Cl)cc3)CC2)c2ccccc2c1=O	·	5	·	-2	·	·	·	·
O=S(=O)(Oc1ccc(C(=S)N2CCOCC2)cc1)c1ccc(Cl)cc1	-5	6	-2	-6	-3	3	1	4
Brc1ccc(CSc2ncnc3nc[nH]c23)cc1	1	4	-7	-1	2	-16	4	0
O=C(O)CCn1cc(/C=C/C(=O)c2ccc(Cl)cc2)c(-c2ccc(Br)cc2)n1	1	-1	-7	3	-18	-7	9	-13
COc1ccc(CSCCc2n[nH]c(=S)n2-c2ccccc2)cc1	8	2	4	2	-2	-4	13	3
CC1(C)C(=O)OC(c2cccc([N+](=O)[O-])c2)C2(CCCCC2)C1=O (stereo not drawn)	-4	-6	-2	8	2	-1	4	4
Cc1ccc(Oc2ccc(OCC(=O)NC3CCS(=O)(=O)C3)cc2)cc1 (stereo not drawn)	3	1	3	10	2	-9	16	3
O=C(Nc1nnc(C2=COCCO2)o1)c1ccc(Cc2ccccc2)cc1	2	6	5	2	3	4	9	2
Cc1nn(C)c(C)c1S(=O)(=O)NCCc1ccc(Cl)cc1	-4	9	0	-6	8	-6	8	-8
Oc1ccc(C(=S)N2CCN(c3cccc(Cl)c3)CC2)cc1	-3	-2	3	6	-1	-2	2	-2
CCC(C)N1C(=O)CCC1C(=O)NCCc1ccc(Cl)cc1 (stereo not drawn)	6	6	-3	-2	-6	-3	0	-3
O=C(c1ccc2[nH]c(=O)c(=O)[nH]c2c1)N1CCc2ccccc2C1	-3	2	0	8	-6	2	4	-4
O=C(O)CSCNC(=O)CC12CC3CC(CC(C3)C1)C2	-10	1	-1	12	-1	-6	2	12
COc1cccc(N(CC(=O)NCCSCc2ccc(Cl)cc2)S(C)(=O)=O)c1	2	5	3	-1	4	-1	6	2
CC12CC3CC(C)(C1)CC(C(=O)NC(=S)N1CCCCC1)(C3)C2	-2	2	1	-1	3	-1	5	3
O=C(NNS(=O)(=O)c1ccc(Cl)cc1)c1cnn(-c2ccccc2)c1-n1cccc1	-2	7	0	3	2	4	2	4
Cc1ccc(Cc2cnc(NC(=O)c3cccs3)s2)cc1	-2	4	-10	-6	-11	-13	1	-13
NS(=O)(=O)c1cccc(NC(=O)CC23CC4CC(CC(Br)(C4)C2)C3)c1	0	2	-6	-1	3	2	0	3
CCCCOc1ccc(C(=O)N2CCC(C)CC2)cc1	-2	4	1	4	1	-7	2	0
O=C(Nc1nnc(Cc2ccc(Cl)cc2)s1)c1cccs1	2	6	5	12	-11	1	1	-3
O=C(Nc1cccnc1)C1(c2ccc(Cl)cc2)CCCC1	1	8	-2	1	2	1	5	2
O=C(CSc1ccccc1)Nc1nnc(COc2ccc(Cl)cc2)s1	-4	-3	-6	-1	-1	-5	19	3
O=C(N[C@@H](Cc1c[nH]c2ccccc12)C(=O)O)C1CCN(S(=O)(=O)c2ccc(Cl)cc2)CC1	-6	-3	-1	6	2	17	7	-2
O=C(NN1CCCCC1)c1cccc(COc2ccc(Cl)cc2)c1	1	5	-2	1	5	-10	8	-6
O=S(=O)(NCCC1=CCCCC1)c1ccc(Br)cc1	-1	-4	-4	2	10	-3	10	-12
O=C(CCCCn1c(=O)[nH]c2ccccc2c1=O)N1CCN(c2cccc(C(F)(F)F)c2)CC1	4	-1	20*	-5	4	-1	0	2
CCc1ccc([C@@H]2CC=C(C(=O)O)[C@H](c3ccc(F)cc3)N2S(=O)(=O)c2ccc(C)cc2)cc1	0	-5	-3	-1	-33	-5	3	-1
O=C(C(Cc1ccc(Cl)cc1)NS(=O)(=O)c1ccccc1)N1CC[C@@]2(O)CCCC[C@H]2C1 (stereo partly drawn)	-5	2	0	12	2	3	-3	3
Cn1ncnc1SCc1cn2cccnc2n1	-5	-8	-2	-9	1	-2	7	-3
CC(=O)Nc1ccc(NC(=O)COC(=O)C2(c3ccc(Cl)cc3)CCCC2)cc1	-1	-3	-5	-1	0	12	9	4
CCOc1ccc([C@@H]2CC=C(C(=O)O)[C@H](c3ccc(Cl)cc3)N2S(=O)(=O)c2ccc(C)cc2)cc1	-2	4	-4	-1	4	-11	3	-3
O=C(CSc1ccc(Cl)cc1)NC(=O)NC1CCCC1	·	2	·	5	·	·	·	·
O=c1[nH]c(SCc2ccc(Cl)cc2)nc2[nH]ncc12	-2	2	0	1	1	-1	2	-2
O=[N+]([O-])c1ccc(Oc2ccc(-c3cnc4ccccc4n3)cc2[N+](=O)[O-])cc1	-3	12	0	1	3	5	0	-2
Cc1onc(-c2ccccc2)c1C(=O)OCC(=O)NC(C)c1ccc(Cl)cc1 (stereo not drawn)	6	4	-3	-9	·	4	5	·
CCOc1ccc(C2CC(c3ccc(CC)cc3)n3nc(N)nc3N2)cc1 (stereo not drawn)	-2	9	5	0	-1	-1	-8	-2
O=C(CSc1nnc(SCc2ccc(Cl)cc2)s1)N/N=C/c1ccccc1C(=O)O	-1	5	-7	3	-3	-4	6	-3
CC(C)C(C(=O)Nc1ccncc1)c1ccc(Cl)cc1 (stereo not drawn)	-3	-1	7	0	0	4	5	-2
COCC(=O)Nc1sc2c(c1C(=O)OC)CCC(C)C2 (stereo not drawn)	1	-3	-4	1	-3	-3	4	-1
O/C(=C\Sc1nnc(Cc2ccccc2)o1)c1ccc(Br)cc1	-1	8	1	14	20	6	7	0
CC(NC(=O)c1ccco1)C12CC3CC(CC(C3)C1)C2 (stereo not drawn)	0	7	3	8	·	3	1	·
COc1ccc(C(=O)C(CN2CCOCC2)c2ccccc2)cc1F (stereo not drawn)	·	3	·	0	·	·	·	·

Part of the list above, with values under each structure:
Second line of a record: PAD4 FP inh	PAFAH1B3 inh	LYPLA1 counter	PAFAH2 inh	GSTO1 inh	PME-1 primary	pPAFAH FP inh	Fam108B inh
NS(=O)(=O)c1cccc(NC(=O)CC23CC4CC(CC(Br)(C4)C2)C3)c1
  0	2	-6	-1	3	2	0	3
CCCCOc1ccc(C(=O)N2CCC(C)CC2)cc1
  -2	4	1	4	1	-7	2	0
O=C(Nc1nnc(Cc2ccc(Cl)cc2)s1)c1cccs1
  2	6	5	12	-11	1	1	-3
O=C(Nc1cccnc1)C1(c2ccc(Cl)cc2)CCCC1
  1	8	-2	1	2	1	5	2

Following part:
SMILES	PAD4 FP inh	PAFAH1B3 inh	LYPLA1 counter	PAFAH2 inh	GSTO1 inh	PME-1 primary	pPAFAH FP inh	Fam108B inh
CCOC(=O)c1cnn(-c2nc(-c3ccc(C)cc3)cs2)c1C(F)(F)F	-1	-4	3	0	3	-2	6	1
C[C@@H]1CCC(=O)N(C[C@@H](C)CSc2ccc(Br)cc2)CC1	2	14	2	7	·	1	3	·
O=C(NCCc1ccc(Cl)cc1)C1CCCN(S(=O)(=O)c2cnc[nH]2)C1 (stereo not drawn)	3	9	0	5	9	-2	-4	3
CCCc1cc(=O)oc2cc(OCC(=O)NCCc3c[nH]c4ccc(OC)cc34)ccc12	1	1	-1	2	-1	7	3	-1
Cc1ccc(S(=O)(=O)c2ccc(Cl)cc2)cc1S(=O)(=O)N1CCOCC1	-4	2	3	11	-4	8	18	-2
O=C(COc1ccc(Br)cc1)NNC(=S)NC(=O)c1ccccc1[N+](=O)[O-]	-2	0	0	0	1	-6	11	-1
Cn1c(N)c(C(=O)COC(=O)C2(c3ccc(F)cc3)CCCC2)c(=O)n(C)c1=O	4	-3	-4	-3	-8	-2	2	-4
CC(=O)c1ccc(N2C(=NC(=O)CCC3CCCC3)SC3CS(=O)(=O)CC32)cc1 (stereo not drawn)	-1	10	-2	-4	5	-4	4	2
O=[N+]([O-])c1cc(-c2cnc3ccccc3n2)ccc1Oc1ccc(Cl)cc1	-2	3	-9	-3	-11	-2	7	-7
CCOc1cc(C(c2c(C)[nH][nH]c2=O)c2c(C)[nH][nH]c2=O)ccc1OS(=O)(=O)c1ccc(C)cc1	-7	-2	0	6	-19	1	0	4
COc1cc2c(cc1OC)CN(S(=O)(=O)c1ccc(Cl)nc1)CC2	·	5	·	7	·	·	·	·
Cc1c(NC(=O)CSc2ccc(Cl)cc2)c(=O)n(-c2ccccc2)n1C	6	7	0	4	2	-1	5	-1
O=C(COC(=O)CCSc1ccc(Cl)cc1)Nc1ccc(F)cc1	2	4	0	0	1	4	15	-5
CC(C)(C)c1ccc(S(=O)(=O)Nc2ccc3c(c2)COC3=O)cc1	-4	-3	-2	-3	-1	-3	3	-1
CC(CCc1ccccc1)NS(=O)(=O)c1ccc(Cl)c(C(=O)O)c1 (stereo not drawn)	-4	6	1	-1	14	1	0	-3
O=C(NCCc1ccc(Cl)cc1)C1CCC(=O)N1Cc1ccccc1Cl (stereo not drawn)	0	10	-4	0	1	11	0	4
COc1ccc(NC(=O)CN(C)CC(=O)Nc2sc3c(c2C#N)CCC3)cc1	-5	11	-4	3	·	9	7	·
O=C(O)c1cc(S(=O)(=O)N2CCN(S(=O)(=O)c3ccccc3)CC2)ccc1Cl	-2	6	-2	-7	4	-3	2	-4
O=c1cc(CSc2ccc(Cl)cc2)nc(N2CCCCC2)[nH]1	1	2	2	11	0	6	-3	2
O=C(C(=Cc1ccc(F)cc1)c1ccccc1)c1ccc(O)cc1	·	1	·	9	·	·	·	·
Cc1ccc(Cc2nnc(SCC(=O)Nc3ccccc3Cl)[nH]c2=O)cc1	1	4	4	0	-11	2	-4	-3
CC1C(=O)Nc2ccccc2N1C(=O)c1ccc(F)cc1 (stereo not drawn)	-4	10	1	-1	-1	5	5	0
O=C(O)c1cc(-c2cccs2)nn1-c1ccc(F)cc1	-4	7	-2	1	6	-10	4	-1

2 of the compounds above, with bars between the fields.
SMILES | PAD4 FP inh | PAFAH1B3 inh | LYPLA1 counter | PAFAH2 inh | GSTO1 inh | PME-1 primary | pPAFAH FP inh | Fam108B inh
O=c1cc(CSc2ccc(Cl)cc2)nc(N2CCCCC2)[nH]1 | 1 | 2 | 2 | 11 | 0 | 6 | -3 | 2
CC1C(=O)Nc2ccccc2N1C(=O)c1ccc(F)cc1 (stereo not drawn) | -4 | 10 | 1 | -1 | -1 | 5 | 5 | 0

Some of the compounds tested (hit frequency here may not be typical).
